MARV entry inh: blocks Marburg virus binding to or entry into cells. Potency, µM (titrated, usually from 37.8 µM), for inactives: at the highest dose activity change, negative = inhibition, usual class: inhibitors. 300,000 compounds, 1.8% hits. AID 540276. Marburg virus pseudotyped entry inhibition, cell reporter; control for the full effect not named in the record; about a third of the inactives were read at about 46 µM; active = well fitted inhibition curve with a large enough effect; inconclusive = small, poorly fitted or top-dose-only effect, or effect the other way; inactive = flat fitted curve, though single readings scatter; tested in HEK293 cells; about a fifth of its hits are not listed in these tables; note: % is set by controls: 0 for no effect and ±100 for the full control effect; luciferase read-out
SARS PLpro yeast: blocks SARS-CoV papain-like protease in a yeast assay; S. cerevisiae expressing SARS-CoV PLpro, growth rescue; control for the full effect not named in the record; Potency, µM (titrated, usually from 32.9 µM), without a hit: top-dose activity, positive = growth rescue; 330,000 compounds, 0.19% hits; AID 485353; active means well fitted rising curve with a large enough effect; inconclusive means small, poorly fitted or top-dose-only effect; inactive means no such curve, though single readings can be large or run the other way; note: 0% is about no effect; nearly all actives have a fitted effect of over 55% in size; growth read by luminescence after 48 h
2A StopGo: FMDV 2A StopGo reporter, luciferase signal. human cells with a luciferase reporter of 2A StopGo recoding; control for the full effect not named in the record. 410,000 compounds, 1.2% hits. Potency, µM (doses to about 57.9 µM), without a hit: at the highest dose signal change, negative = less light. AID 1159524; active = well fitted falling curve with a large enough effect; inconclusive = small, poorly fitted or top-dose-only effect; inactive = no such curve, though single readings can be large or run the other way; tested in HEK293T cells; note: % is set by controls: 0 for no effect and ±100 for the full control effect; nearly all actives have a fitted effect of over 45% in size; luciferase light after 4 h
Lassa entry inh: Lassa virus entry inhibition; Lassa virus pseudotype entry inhibition, cell reporter; control for the full effect not named in the record; Potency, µM (titrated, usually from 37.9 µM), without a hit: at the top dose activity change, negative = inhibition, actives largely listed as inhibitors; AID 540256; 300,000 compounds, 1.2% hits; active means well fitted inhibition curve with a large enough effect; inconclusive means small, poorly fitted or top-dose-only effect, or effect the other way; inactive means flat fitted curve, though single readings scatter; tested in HEK293 cells; note: % is set by controls: 0 for no effect and ±100 for the full control effect; nearly all actives have a fitted effect of over 50% in size; luciferase read-out
Cruzain noTriton: inhibitors of Trypanosoma cruzi cruzain without detergent; Potency, µM, for inactives: max response, negative = inhibition, hits mostly inhibitors; purified cruzain, Z-FR-AMC fluorescence, no detergent; 200,000 compounds, 2.3% hits; AID 1476;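 note: plate controls were enzyme without inhibitor for no effect and buffer without enzyme for full effect; nearly all actives have a fitted effect of over 40% in size; top concentration of the series not given in the record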
Target sequence (P25779 123-467 limits assumed): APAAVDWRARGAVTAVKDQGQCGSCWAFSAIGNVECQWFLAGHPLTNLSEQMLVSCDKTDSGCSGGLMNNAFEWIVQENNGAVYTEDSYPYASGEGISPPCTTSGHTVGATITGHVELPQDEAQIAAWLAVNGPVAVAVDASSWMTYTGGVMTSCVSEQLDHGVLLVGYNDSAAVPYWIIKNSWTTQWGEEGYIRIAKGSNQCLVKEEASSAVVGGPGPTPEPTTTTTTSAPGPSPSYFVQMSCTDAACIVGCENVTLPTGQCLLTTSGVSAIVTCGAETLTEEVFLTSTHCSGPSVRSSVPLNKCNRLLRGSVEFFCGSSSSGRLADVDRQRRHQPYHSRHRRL
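Purified cruzain at 1.5 nM, pre-incubated 15 min with compound at room temperature in 100 mM sodium acetate pH 5.5, 5 mM DTT, 0.00005% Triton X-100. Reaction started with 2 uM Z-FR-AMC; AMC fluorescence increase over 60 s gives rate.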
RE007 growth inh: less growth of the S. pombe RE007 Vpr strain. Potency, µM (top dose mostly 92.2 µM), for inactives: at the top dose activity change, negative = less growth. S. pombe RE007 Vpr strain, BacTiter-Glo ATP luminescence, 24 h; control for the full effect not named in the record. 360,000 compounds, 0.21% hits; active = well fitted falling curve with a large enough effect; inconclusive = small, poorly fitted or top-dose-only effect; inactive = no such curve, though single readings can be large or run the other way;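 note: % is set by controls: 0 for no effect and ±100 for the full control effect; nearly all actives have a fitted effect of over 50% in size; the assay follows cell death caused by Vpr and the record does not say whether a fall means rescue or toxicity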
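Fission yeast RE007 carrying one integrated HIV-1 vpr copy, seeded at OD 0.01 in PMG+AL medium with 23 nL pinned compound. Grown 24 h at 30 degrees; viability read by BacTiter-Glo luminescence after 5 min.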
Cruzain inh Det: inhibitors of Trypanosoma cruzi cruzain with detergent; P25779; purified cruzain, Z-FR-AMC fluorescence, 0.01% Triton; Potency, µM, inactives show max response, negative = inhibition, usual class: inhibitors; 200,000 compounds, 0.43% hits; AID 1478;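 note: plate controls were neutral wells for no effect and buffer without enzyme for full effect; nearly all actives have a fitted effect of over 40% in size; top concentration of the series not given in the record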
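Sodium acetate buffer (100 mM, pH 5.5) containing 5 mM DTT and 0.01% Triton X-100 hosted 1.5 nM cruzain and test compound for 15 min at room temperature. Cleavage of 2 uM Z-FR-AMC was then tracked by fluorescence.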
NS1 inh: blocks influenza NS1 protein function; S. cerevisiae slowed by influenza A NS1, growth recovery by OD600; Potency, µM (doses to about 46.1 µM), inactives show at the top dose activity, positive = more growth; 270,000 compounds, 0.4% hits; AID 2326; active means well fitted rising curve with a large enough effect; inconclusive means small, poorly fitted or top-dose-only effect; inactive means no such curve, though single readings can be large or run the other way; note: nearly all actives have a fitted effect of over 50% in size
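OD600 was taken as the measure of yeast growth restored by compound in an NS1-expressing S. cerevisiae strain. Cells had been washed out of glucose medium and diluted 1:100 into galactose -URA medium, pH 6.0.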
Starred values were filed as active, the others as inactive; ? = inconclusive; · = no result given; & = joins results of further samples; [ ] = another dose, or the depositor's remark. Unless noted, calls come from the whole dose curve; as a rule, active = well fitted curve in the direction sought with a large enough effect; inconclusive = small, poorly fitted or top-dose-only effect, or another doubt; inactive = no such curve, though single readings can be large; an effect the other way counts as inactive or inconclusive. Potency is the fitted concentration of half-maximal effect.

SMILES | MARV entry inh | SARS PLpro yeast | 2A StopGo | Lassa entry inh | Cruzain noTriton | RE007 growth inh | Cruzain inh Det | NS1 inh
CCn1cnc2c1c(=O)n(Cc1nnc3n1-c1ccccc1SC3)c(=O)n2Cc1ccccc1 | -4%&-4% | 7% | -25% | -11% | ? | -3% | -9.4% | 3%
COc1ccc(N2CCN(C(CNC(=O)c3ccc(OC)c(OC)c3)c3cccnc3)CC2)cc1 (stereo not given) | · | · | -11% | -21%[46.1 µM] | ? | · | -6.3% | ·
Clc1ccc(N2CCN(c3ccnc(Cl)n3)CC2)cc1 | ? | · | -22% | -7% | · | ? | · | ·
COc1ccc(CCNC(=O)CSC2=NS(=O)(=O)c3ccccc3N2)cc1OC | 19% | -1% | 19% | ? | · | 10% | · | ·
Cn1c(SCC(N)=O)nc2c([nH]c3ccccc32)c1=O | · | · | 7% | 4%[46.1 µM] | 18% | · | -0.5% | ·
COc1ccc(C2CC2/C(=N/O)c2ccccc2)cc1 (stereo not given) | -7%[14.2 µM] | -4% | 30% | ? | · | 1% | · | ·
Cn1c(=O)c(=O)n(C)c2cc(N3CCCC3)c(NC(=O)c3ccccc3F)cc21 | 7%[46.1 µM] | · | -4% | 27%[46.1 µM] | -5% | · | -0.2% | ·
Cc1ccc(NC(=O)Cn2c(C)cc(C)c(C#N)c2=O)c(Cl)c1 | -2% | 14% | -10% | -8% | -6% | 0% | -12% | -4%
CCOc1ccc(CCNC(=O)CCS(=O)(=O)c2ccc(C)cc2)cc1OCC | · | -2% | -15% | · | · | -6% | · | -4%
O=C(Nc1ccccc1)N1CCC2(CC1)OCCO2 | · | -2% | 13% | · | · | -10% | · | 3%
CCCCNc1nc2c(c(=O)n(C)c(=O)n2C)n1CC(O)COc1ccccc1C (stereo not given) | ? | · | -26% | -23%[46.1 µM] | ? | · | -5.4% | ·
CCOC(=O)c1nnn(-c2nonc2N)c1CSc1ccccc1 | 3% | -19% | -9% | -14% | -3% | 19% | -2.9% | -11%
CN(C)c1cc(N/N=C/c2ccccc2C(F)(F)F)nc(N(C)C)n1 | ? | -9% | -11% | ? | · | -24% | · | -17%
CCn1cc(C(=O)N2CCN(c3ccccc3)CC2)c(=O)c2cc(S(=O)(=O)N3CCCC3)ccc21 | 23%[46.1 µM] | · | 6% | 19%[46.1 µM] | ? | · | -5.5% | ·
CC(=O)c1sc(N2C(=O)c3oc4ccccc4c(=O)c3C2c2ccc(C)cc2)nc1C (stereo not given) | -13%[46.1 µM] | · | -11% | 3%[46.1 µM] | -5% | · | 0.4% | ·
COc1cccc(OC)c1CNC(=O)CCSCc1ccccc1F | ? | 2% | -13% | ? | · | 1% | · | ·
C/C(=N\Nc1ccc(C(=O)O)cc1)c1ccc(-n2ccnc2)cc1 | -11%[46.1 µM] | 0% | 5% | ? | · | 1% | · | ·
CSc1ncccc1C(=O)OCC(=O)NC(N)=O | -5% | 6% | -13% | 10% | -3% | 11% | 4.6% | 7%
COc1ccc(CCNc2nc3ccccc3n3cnnc23)cc1OC | · | -1% | -28% | · | · | 6% | · | 6%
NC(=O)CSc1nc(N)c2c3c(sc2n1)CCCCC3 | -2% | -2% | 24% | -6% | -16% | -7% | -9.7% | 11%
COc1cc(C(=O)NCC(c2ccc(N(C)C)cc2)N2CCCC2)cc(OC)c1OC (stereo not given) | · | · | -12% | 15%[46.1 µM] | -2% | · | 0.9% | ·
O=C(NCCc1ccccc1)C(=O)NCC(c1cccnc1)N1CCN(c2ccccc2F)CC1 (stereo not given) | · | · | ? | -3%[46.1 µM] | 0% | · | -1.0% | ·
O=S(=O)(Cc1ccccc1)N1CCN(Cc2ccc3c(c2)OCO3)CC1 | 17% | · | ? | -5% | -1% | -4% | -2.3% | -7%
CCNc1nc(Cl)nc(NCc2ccccc2)n1 | 32% | 2% | 13% | 8% | ? | -11% | 9.0% | 10%

The closing 2 records of the part before lead into the next.
SMILES | MARV entry inh | SARS PLpro yeast | 2A StopGo | Lassa entry inh | Cruzain noTriton | RE007 growth inh | Cruzain inh Det | NS1 inh
O=S(=O)(Cc1ccccc1)N1CCN(Cc2ccc3c(c2)OCO3)CC1 | 17% | · | ? | -5% | -1% | -4% | -2.3% | -7%
CCNc1nc(Cl)nc(NCc2ccccc2)n1 | 32% | 2% | 13% | 8% | ? | -11% | 9.0% | 10%
COc1ccc(C(c2nnnn2Cc2ccccc2)N2CCN(C(=O)c3ccco3)CC2)cc1OC (stereo not given) | -5% | 0% | -13% | -1% | 12% | 0% | -1.9% | 0%
COC(=O)c1nc(NC(=O)c2ccccc2Br)n[nH]1 | -14%[46.1 µM] | 2% | 20µM* | -2%[46.1 µM] | · | 11% | · | ·
Clc1ccc(-c2csc(N3CCOCC3)n2)cc1 | ? | 1% | 18% | ? | · | -19% | · | ·
CC1=Nc2ccccc2/C1=C\c1nc(-c2ccccc2)oc1O | -3% | -30% | -5% | 2% | -5% | -14% | -3.8% | 5%
COc1ccccc1N1CCN(C(=S)NC(=O)/C=C/c2ccccc2)CC1 | ? | 0% | 9% | 0% | · | 18% | · | -2%
CCOC(=O)C1CCCN(C(=O)CCNS(=O)(=O)c2ccc3c(c2)CCC(=O)N3)C1 (stereo not given) | 10% | -2% | -9% | -5% | -2% | -4% | 4.5% | 1%
CN(c1ccccc1)S(=O)(=O)c1cccc(NC(=O)c2ccncc2)c1 | · | 1% | ? | · | · | 1% | · | 2%
CCOc1ccc(NC(=O)CN2C(=O)COc3ccccc32)cc1 | · | 1% | 8% | · | · | 8% | · | 0%
COc1ccc(N2C(=O)/C(=C\c3ccco3)N=C2SCC(N)=O)cc1Cl | ? | 4% | -19% | -20%[46.1 µM] | · | -12% | · | ·
COc1cc(C(=O)Nc2ccc(N3CCN(C(=O)c4ccc(C)cc4)CC3)cc2)cc(OC)c1OC | · | 0% | -9% | · | · | -14% | · | 16%
COc1ccc(C(=O)NC2CCCc3ccccc32)cc1S(=O)(=O)N1CCOCC1 (stereo not given) | -12%[46.1 µM] | 0% | 32%[activator] | -1% | · | -16% | · | -7%
Cc1ccc2oc3c(c(=O)c2c1)C(c1ccc(O)cc1)N(c1nc(C)c(C)s1)C3=O (stereo not given) | ? | · | -14% | 5%[46.1 µM] | 6% | · | -1.2% | ·
COCCN(C(=O)c1csnn1)C(C(=O)NC1CCCCC1)c1sccc1C (stereo not given) | 2% | 12% | 0% | -3% | 7% | -13% | 2.6% | 0%
NS(=O)(=O)c1ccc(O)c(NC(=O)c2ccc([N+](=O)[O-])o2)c1 | ? | 0% | -12% | ? | · | -14% | · | -1%
O=C1CCC(C(=O)N2CCCC2)CN1Cc1cccc(C(F)(F)F)c1 (stereo not given) | 17% | 0% | -13% | 3% | · | 9% | · | 4%
CCOC(=O)COn1c(=O)c[n+]([O-])c2ccccc21 | -4% | 0% | -19% | 4% | -6% | 12% | 2.2% | -1%
Cc1ccc(-c2nc3c(c(SCC(=O)N4CCOCC4)n2)COC(C)(C)C3)cc1 | -9% | · | -12% | 17% | · | 8% | · | ·
CN(CC(=O)Nc1cccc(F)c1)C(=O)CCNC(=O)c1ccc(Br)cc1 | ? | ? | 24% | 12%[46.1 µM] | · | -2% | · | 13%
Cc1cccc(N(C(=O)CS(=O)CC(=O)Nc2ccc3c(c2)OCO3)C(C)C(=O)NC2CCCC2)c1C (stereo not given) | · | 1% | 14% | · | · | -1% | · | -13%
OCCC#Cc1ccc(CN2CCN(C3CCCCC3)C(CCO)C2)cc1 (stereo not given) | · | 1% | -1% | · | · | 1% | · | -1%
Cc1nn(C)cc1C(C)NC(=O)c1cc(COc2ccc(F)c(F)c2)on1 (stereo not given) | · | -4% | 3% | · | · | -3% | · | -4%
CC(C)CCN1CCN(Cc2ccc(Sc3nncn3C)o2)CC1CCO (stereo not given) | 12% | 0% | -13% | 26% | · | 4% | · | 0%
O=C(COc1ccc(F)cc1)NCCCn1ccnc1 | 4%[46.1 µM] | · | -20% | 13% | · | -4% | · | 7%
O=C(NCc1ccccc1Cl)c1ccc(S(=O)(=O)Nc2cccc(C(F)(F)F)c2)cc1 | ? | 6% | 3% | ? | 3% | -1% | -7.3% | 8%
Cc1csc(NC(=O)Cc2nn(C)c(=O)c3ccccc23)n1 | ? | 14% | ? | -7% | -7% | 1% | 2.5% | 2%
COc1c(Cl)cnn(-c2cccc(C)c2)c1=O | · | 7% | -11% | · | · | 1% | · | 4%
COc1ccc(CNC(=O)CSc2nnc(C)c3c(C)n(-c4ccccc4)nc23)c(OC)c1 | · | · | ? | ? | 7% | · | -7.3% | ·
Cc1cc(C)c(C)c(OCCCn2ccnc2)c1 | 16% | -5% | ? | 4% | -4% | -11% | 2.4% | -13%
COc1ccc(OC)c(CN2C(=O)c3ccccc3C2C(=O)NCC2CCCO2)c1 (stereo not given) | 13%[46.1 µM] | 2% | 6% | 5% | · | -6% | · | ·
Cc1ccccc1C(=O)N1CCN(c2ccc(NC(=O)Cc3ccccc3)cc2)CC1 | 1% | 7% | -28% | -15% | · | -11% | · | 12%
Fc1ccc(C2=CCN(C(c3cccs3)c3nnnn3CCc3ccccc3)CC2)cc1 (stereo not given) | -2%[46.1 µM] | -17% | -6% | ? | -16% | -2% | 0.7% | -6%
CCC1CCCCN1C(=O)c1ccc(OC2CCN(C(=O)COC)CC2)cc1 (stereo not given) | 11% | -4% | 7% | -5% | · | -21% | · | 16%
Cc1c(C(=O)NCC2CCCO2)oc2ccc(S(=O)(=O)N3CCCC3)cc12 (stereo not given) | 7%&7%[46.1 µM] | 8% | -25% | 14% | 4% | 28% | 0.7% | 0%
O=C(Nc1ccc(F)cc1)c1nc(SCc2ccccc2F)ncc1Cl | 2%[46.1 µM] | · | -9% | 21%[46.1 µM] | -2% | · | 0.8% | ·
NC(=O)c1ccc(N)nc1 | · | · | -19%&-2% | · | 13% | 10% | 0.0% | ·

Screens (PubChem BioAssay)
